Mtb H37Rv – M. tuberculosis H37Rv growth inhibitors, H37Rv strain (AID 1626). M. tuberculosis H37Rv growth inhibition; higher % means a stronger effect. inhibition, % at 10 µM, or IC50 in µM where a hit was titrated. hit rate 0.95% among 220,000;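 active means confirmed in a dose series; inconclusive means inhibition above 80% but not taken into the dose series; inactive means below 80% or under 30% at every dose of the series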;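 further: bacteria incubated seven days before Alamar blue readout; 0% = bacteria only wells and 100% = bacteria with antibiotic wells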
YopH inh – YopH tyrosine phosphatase inhibitors, primary screen, biochemical, fluorescence Ex485/Em525. YopH tyrosine phosphatase [Yersinia enterocolitica]. inhibition, %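 (about 10 µM by stock and volumes)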. hit rate 0.16% among 140,000. AID 898, 2007;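 active means inhibition of 50% or more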;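 further: controls were vehicle for no effect and minimum signal wells for full effect; inactives centre near -20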
Mtb bLac sens – beta-lactam sensitization of Mtb H37Rv, H37Rv. M. tuberculosis H37Rv growth with meropenem, percent inhibition; hits of this screen are not shown here. inhibition, % at 25 µM. hit rate 0.27% among 330,000. AID 434955, 2010;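 active means about 74% or more and at least 40 points above the plate without the antibiotic, then above 30% in a dose series; inconclusive means first-round hits that could not be retested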;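 further: growth measured after seven days incubation then overnight dye step; 0% = bacteria only wells and 100% = bacteria with antibiotic; twin plates without the antibiotic show which effects depend on it; some results filed as inactive read as strong as hits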
Arbovirus anti – antivirals against arbovirus infection, primary screen, cell-based, full library, 10K replicate subset | hit rate 0.37% among 200,000 | inhibition, % at 10 µM | arbovirus infection cell-based antiviral screen;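 active means inhibition from about 30%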;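 further: bluetongue infection of BSR cells; cell survival read as ATP light after 72 h; 0% = infected wells without compound and 100% = uninfected wells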
RecA intein inh – Mtb RecA intein splicing inhibitors, primary screen, biochemical, fluorescence, HTS; cell-free RecA intein splicing; hit rate 0.75% among 290,000; inhibition, %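 (about 9 µM by stock and volumes)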; Protein RecA (Mycobacterium tuberculosis (strain ATCC 25618 / H37Rv)), P9WHJ3; in the data active means inhibition above about 30%; inconclusive means no clear call, values can overlap the other calls;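 further: 0% = vehicle wells and 100% = reference inhibitor control wells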
Target sequence (P9WHJ3 whole entry, looked up): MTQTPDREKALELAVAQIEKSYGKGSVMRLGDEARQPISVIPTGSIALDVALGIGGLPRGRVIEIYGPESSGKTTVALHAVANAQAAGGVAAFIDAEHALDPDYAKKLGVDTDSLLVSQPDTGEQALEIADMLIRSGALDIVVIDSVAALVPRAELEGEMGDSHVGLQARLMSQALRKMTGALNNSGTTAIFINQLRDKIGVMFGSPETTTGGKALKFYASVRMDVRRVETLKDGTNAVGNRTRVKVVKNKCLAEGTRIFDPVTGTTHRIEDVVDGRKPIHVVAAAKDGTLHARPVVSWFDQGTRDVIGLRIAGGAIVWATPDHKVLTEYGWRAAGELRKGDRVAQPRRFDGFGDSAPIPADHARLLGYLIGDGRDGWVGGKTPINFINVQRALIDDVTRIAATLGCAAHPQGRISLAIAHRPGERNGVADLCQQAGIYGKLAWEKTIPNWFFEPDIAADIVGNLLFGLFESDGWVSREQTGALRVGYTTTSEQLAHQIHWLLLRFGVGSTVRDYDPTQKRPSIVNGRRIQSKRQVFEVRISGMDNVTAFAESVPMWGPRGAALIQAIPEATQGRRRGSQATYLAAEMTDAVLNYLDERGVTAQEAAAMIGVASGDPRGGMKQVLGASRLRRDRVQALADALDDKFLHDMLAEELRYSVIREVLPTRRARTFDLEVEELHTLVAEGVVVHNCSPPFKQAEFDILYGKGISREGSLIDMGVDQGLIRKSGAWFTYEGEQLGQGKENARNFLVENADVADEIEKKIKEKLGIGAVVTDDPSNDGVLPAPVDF
Arbovirus anti repeat – also measured in Arbovirus anti; calls as there; inhibition, %; measured here: 10K subset replicate screen; many hits read low in the repeat;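 first of two repeat runs on a subset; 0% = infected and 100% = uninfected wells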
Active calls of the source: *; ? = inconclusive; . = no result given; & = joins results of further samples. The list is partial (hit frequency here may not be typical).

SMILES	Mtb H37Rv	YopH inh	Mtb bLac sens	Arbovirus anti	RecA intein inh	others
O=C(O)C1C2C=CC(C2)C1C(=O)NCc1ccc2c(c1)OCO2 (stereo not drawn)	-3%	-29	-4	5	0.1	Arbovirus anti repeat=0
O=C(O)C1CC=CCC1C(=O)Nc1ccc2c(c1)OCCO2 (stereo not drawn)	-2%	-38	11	4	3.7
COc1nc(NCCC2=CCCCC2)nc(OC)n1	-2%	1	-2	-4	0.3	Arbovirus anti repeat=1
COc1ccc(CCNCC(=O)Nc2ccc(C(=O)N3CCCCC3)cc2)cc1	.	.	-3	.	0.9
O=C(CCCOc1ccc(Cl)cc1)N1CCCCCC1	3%	7	0	5	5.8
NC1=NC(=Nc2ccccc2)c2ccccc21	4%	-32	-2	-13	0.7
Cc1cc(N2C(=O)C3C4C=CC(C4)C3C2=O)ccc1NC(=O)c1cccs1 (stereo not drawn)	5%	-21	1	8	-0.6
O=C(NCCOc1ccccc1)C1CCC(=O)N(C2CCCCCC2)C1 (stereo not drawn)	.	.	?	.	2.3
S=C(Nc1ccc2nsnc2c1)N1CCCCCC1	2%	.	4	-10	55*
CC(CN1CCCCC1)C(=O)NNC(=O)C12CC3CC(CC(C3)C1)C2 (stereo not drawn)	4%	.	-10	19	-0.7
Fc1ccc(Cn2nnnc2C(c2cccs2)N2CCCCCC2)cc1 (stereo not drawn)	.	-6	0	-23	11
CC(C)(C)OC(=O)N1CCCN(C(=O)Nc2ccccc2)CC1	-10%	.	-8	.	0.7

Quoted at random: 5 compounds from above
SMILES	Mtb H37Rv	YopH inh	Mtb bLac sens	Arbovirus anti	RecA intein inh	others
COc1nc(NCCC2=CCCCC2)nc(OC)n1	-2%	1	-2	-4	0.3	Arbovirus anti repeat=1
CC(C)(C)OC(=O)N1CCCN(C(=O)Nc2ccccc2)CC1	-10%	.	-8	.	0.7
Cc1cc(N2C(=O)C3C4C=CC(C4)C3C2=O)ccc1NC(=O)c1cccs1 (stereo not drawn)	5%	-21	1	8	-0.6
NC1=NC(=Nc2ccccc2)c2ccccc21	4%	-32	-2	-13	0.7
O=C(O)C1C2C=CC(C2)C1C(=O)NCc1ccc2c(c1)OCO2 (stereo not drawn)	-3%	-29	-4	5	0.1	Arbovirus anti repeat=0

(cont.)
SMILES	Mtb H37Rv	YopH inh	Mtb bLac sens	Arbovirus anti	RecA intein inh	others
CCOc1ccccc1C(=O)Nc1ccc(S(=O)(=O)Nc2cc(OC)nc(OC)n2)cc1	.	.	2	.	-0.7
O=C(c1ccc(C(F)(F)F)cc1)C1CCCN(C2CCSCC2)C1 (stereo not drawn)	3%	.	4	1	-0.2
COCC(=O)Nc1ccc(N2CCN(c3ccccc3)CC2)c(F)c1	.	.	3	.	0.9
CC(=O)N1c2ccc(S(=O)(=O)NCCC(=O)Nc3ccc(C)cn3)cc2CC1C (stereo not drawn)	.	.	-3	.	1.1
CC(NC(=O)Cn1c(=O)oc2cc(S(=O)(=O)N3CCCC3)ccc21)c1ccccc1 (stereo not drawn)	-3%	-34	-2	6	4.6
O=C(Nc1ccc(Cl)cc1)OCc1ccccn1	-3%	-86	13	-1	-2.0
COc1ccc(C(=O)Nc2cnc3sc(C)nn3c2=O)cc1	-7%	.	-3	-3	-0.4
O=[N+]([O-])c1ccc(Cl)c(S(=O)(=O)NCC2CCCO2)c1 (stereo not drawn)	1%	-4	-1	-1	-4.6
Cc1ccccc1Cn1c(C)cc(C)c(C#N)c1=O	-2%	.	-4	11	1.6
CCCCOc1ccccc1C(=O)NCCCCCC(=O)O	.	-48	4	6	-1.4
COc1ccc(C2NC(=O)N(C)C(C)=C2[N+](=O)[O-])cc1 (stereo not drawn)	.	.	1	.	-2.7
CN(Cc1ccccc1)C1CC(=O)N(c2ccc(C(=O)O)cc2)C1=O (stereo not drawn)	-1%	-25	2	13	0.3
Cc1ccccc1S(=O)(=O)Cc1ccc(C(=O)NCCCN2CCCC(C)C2)o1 (stereo not drawn)	.	.	4	.	1.4
COc1ccc(C2C(C(=O)C(C)(C)C)=C(O)C(=O)N2Cc2ccccc2)cc1 (stereo not drawn)	-6%	-6	0	-6	0.5
O=C(CN(C(=O)CCC(=O)Nc1nccs1)c1cccc(F)c1)NCC1CCCO1 (stereo not drawn)	-2%	-36	-6	0	-1.3
Cc1ccc(CNS(=O)(=O)NCc2ccccc2F)cc1	.	.	2	11	-0.7
O=C(OCC(=O)N1CCCC1=O)C1CCN(S(=O)(=O)c2c(Cl)cccc2Cl)CC1	.	.	-23	.	-1.3
Nc1sc2c([n+]1CCCS(=O)(=O)[O-])CCCC2	-2%	.	4	10	-1.2
Cc1cc(NC(=O)CN2CCCCCCC2)no1	7%	-39	-1	2	-1.1
CC1(c2nnc(Cc3ccccc3)o2)CC(c2cccc([N+](=O)[O-])c2)=NO1 (stereo not drawn)	.	.	-6	.	-1.1
Clc1ccc2nc(CN3CCCCC3)cn2c1	-18%	-4	3	-6	-0.2
O=C(CCCN1CCc2[nH]c3ccc(F)cc3c2C1)c1ccc(F)cc1	.	.	?	.	3.1
C=CCn1c(Cc2ccccc2)nc2c(cnn2-c2ccccc2)c1=O	.	.	47	.	-1.4
CN(Cc1nc(-c2cccnc2)no1)S(=O)(=O)c1ccc(Br)cc1	5%	-101	0	2	3.7
COc1ccc(CCNC(=O)CN(C)S(=O)(=O)c2ccc3c(c2)CCC(=O)N3)cc1OC	0%	-51	-3	-1	-2.2
CCC(=O)Nc1sc2c(c1C(N)=O)CCN(Cc1ccccc1)C2	.	.	-2	.	-121
O=C(O)C(Cc1c[nH]c2ccccc12)N1Cc2ccccc2C1=O (stereo not drawn)	-8%	.	-4	9	3.5
Cc1ccc(NC(=O)Nc2c(C)n(C)n(-c3ccccc3)c2=O)cc1C	-7%	.	-5	5	0.5
Cc1nn(Cc2ccc(C(=O)N3N=C(C(F)F)CC3(O)C(F)F)o2)c(C)c1[N+](=O)[O-] (stereo not drawn)	0%	-15	22	16	-13
COc1ccc(CNC(=O)c2c(O)c3ccccc3n(C)c2=O)cc1OC	2%	-42	1	0	-1.5
CCOc1ccc2cc(S(=O)(=O)N3CCN(C)CC3)ccc2c1	.	-12	56	1	0.4
O=C(CN1C(=O)C2CCc3[nH]c4ccccc4c3C2C1=O)N1CCCC1 (stereo not drawn)	2%	-55	.	-4	7.1
O=C(Nn1cnnc1)c1cc(Cl)ccc1Cl	.	.	0	.	0.1
COc1ccc(-c2nc3c(Br)c(N)c(Br)cc3o2)cc1	.	-39	7	-7	.
CCC1CCCCN1S(=O)(=O)c1ccc(S(=O)(=O)N(Cc2cccs2)C2CC2)cc1 (stereo not drawn)	-6%	-10	-1	0	2.1
Cc1cc(=O)n2c3c(sc2n1)C(=O)N(Cc1ccccc1)C3=O	-11%	-25	-2	-21	4.7
Cc1ccccc1OCc1n(CC(=O)OC2CC(C)CCC2C(C)C)c2ccccc2[n+]1C (stereo not drawn)	3.7µM*	.	99	-34&-30	12&23
COc1ccc(C2CC(c3cccs3)=NN2C(=O)CSc2nc3ccccc3o2)cc1 (stereo not drawn)	13%	-37	85	8	29
COc1ccccc1OCCNC(=O)c1ccc(S(=O)(=O)N(C)C)cc1	-2%	-35	7	-4	2.4	Arbovirus anti repeat=-3
COc1ccccc1CC(=O)NCc1ccc2c(c1)OCO2	5%	12	5	-10	-1.2
Cc1[nH]c(=S)c(C#N)c(-c2ccccc2)c1C(=O)Nc1ccccc1	-6%	.	-10	.	2.1
CCOC(=O)N1CCN(C(=O)c2cc(COc3ccc4ncccc4c3)on2)CC1	10%	.	3	18	0.0
O=[N+]([O-])c1ccc(Sc2cccc3cccnc23)c2cccnc12	5%	.	24	5	-0.8
COC(C)(C)c1cc(C(C)(C)C)nc(N)n1	-3%	-16	2	-4	-2.3
O=C(COC(=O)Cc1ccsc1)NCc1ccc(Cl)cc1	-3%	-28	-4	2	.
Cc1nn(-c2ccccc2)c(C)c1NC(=O)COC(=O)C1CC(=O)N(CCc2ccccc2)C1 (stereo not drawn)	.	.	-4	.	-2.8
COc1ccc(N2CCN(C(=O)CCCOc3cc(=O)n(C)c4ccccc34)CC2)cc1	-2%	12	?	-4	-4.5
CCNC(=S)N/N=C/c1cn(Cc2ccc(F)cc2)c2ccccc12	.	-12	6	3	-1.3
O=C(CCCCCn1c(=S)[nH]c2ccccc2c1=O)NCc1ccc2c(c1)OCO2	2%	-3	-2	-3	2.5
Cc1ccc(CN2CCN(c3ccccn3)CC2)s1	-7%	-13	3	5	2.5
Cc1occc1C(=O)N=Nc1c(O)n(C)c2ccccc12	7%	-32	3	-7	0.6
COC(=O)c1ccc2c(=O)[nH]c(CSc3nc(-c4ccc(F)cc4)cs3)nc2c1	1%	-30	0	-2	13
CC(=O)Oc1ccc(N(C(C)=O)S(=O)(=O)c2cccs2)cc1	-5%	-33	9	8	1.5
COc1cccc(C2CC(=O)Nc3cc(OC)c(OC)cc32)c1 (stereo not drawn)	.	.	5	.	-0.1
COc1cccc(/C=C/C(=O)NCCc2ccc3c(c2)OCCO3)c1	5%	-21	11	-8	3.7
CCCc1nn2c(=O)cc(CSCC(=O)Nc3nnc(C(C)C)s3)nc2s1	.	.	-8	.	-6.8
CCCCSCCCNC(=O)C1CCC(CNS(=O)(=O)c2ccc(NC(C)=O)cc2)CC1 (stereo not drawn)	.	.	-3	.	0.1
CN(CCCNC(=O)Cn1cccc1C(=O)c1ccccc1)C1CCCCC1	5%	.	0	5	0.2
Cc1cc(S(=O)(=O)NCc2cccs2)ccc1-n1cnnn1	2%	5	3	4	5.0
COc1cc(NC(=S)N2c3ccccc3CC2C)cc(OC)c1 (stereo not drawn)	.	.	1	.	1.1
More results follow:
SMILES	Mtb H37Rv	YopH inh	Mtb bLac sens	Arbovirus anti	RecA intein inh	others
CC(C)NC(=O)c1onc(CSc2ccc(F)cc2)c1C(=O)NC(C)C	.	.	-3	.	0.8
Cc1ccccc1NC(=O)c1ccc2c(O)c(S(=O)(=O)c3ccccc3)c(=O)[nH]c2c1	.	.	-1	.	1.8
COc1ccc(OC)c(C2C(C(=O)Nc3nc4ccccc4s3)=C(C)NC3=C2C(=O)CCC3)c1 (stereo not drawn)	61%	-15	-3	-11	-14
NC(=O)C1CCN(C(=O)c2cccc3ccccc23)CC1	.	.	1	.	0.3
COc1ccccc1C1=NOC(Cn2c(NCCOCCO)nc3c2c(=O)n(C)c(=O)n3C)C1 (stereo not drawn)	-4%	.	-5	.	.
Cc1cc(Cl)ccc1NC(=O)CCC(=O)N/N=C/c1cc([N+](=O)[O-])ccc1O	4%	.	23	-4	.
COc1ccc(Br)cc1C(=O)Nc1ccccc1-c1ccccc1	68%	-17	99	13	13
CC(=O)N1CCSc2ccc(S(=O)(=O)NCc3ccc(F)cc3)cc21	.	.	-1	.	-1.9
O=[N+]([O-])c1cc(F)c(N2CCCC2)cc1Br	0%	.	63	20	0.3
CCOC(=O)CSc1nnc(-c2cc(OC)c(OC)c(OC)c2)o1	1.6µM*	.	98	-4	-2.3
CN1CCN(C(=S)NC(=O)/C=C/c2ccccc2Cl)CC1	-6%	.	-4	10	0.6
Cc1nc(-c2cccnc2)sc1C(=O)Nc1cccc(C(F)(F)F)c1	4%	-39	96	0	0.8
O=C(NC1CC2CCC1C2)C1CCN(S(=O)(=O)c2ccc(-c3nn[nH]n3)cc2)CC1 (stereo not drawn)	-15%	-35	-8	1	1.9
CC(=O)c1cccc(NC(=O)C2CCN(C(=O)c3ccc([N+](=O)[O-])cc3)CC2)c1	5%	.	-1	6	0.0
Cn1cc(CN2CCCCC2C(=O)Nc2ccc(-n3cccn3)cc2)cn1 (stereo not drawn)	.	.	2	.	0.7
CC(C)CCn1nnnc1C(c1ccc(F)cc1)N1CCC(C(N)=O)CC1 (stereo not drawn)	0%	-37	-8	-7	1.3
COc1ccc(C(c2c(N)[nH]c(=S)[nH]c2=O)c2c(N)[nH]c(=S)[nH]c2=O)cc1	2%	.	-12	.	-3.5
CCCCC1=CC2=CC(=O)C(C)(OC(=O)c3ccc(Cl)nc3)C(=O)C2=CO1 (stereo not drawn)	-13%	.	4	.	1.6

Entries shown so far with a furan ring, fused or not, in the order listed:
SMILES	Mtb H37Rv	YopH inh	Mtb bLac sens	Arbovirus anti	RecA intein inh	others
Cc1ccccc1S(=O)(=O)Cc1ccc(C(=O)NCCCN2CCCC(C)C2)o1 (stereo not drawn)	.	.	4	.	1.4
Cc1nn(Cc2ccc(C(=O)N3N=C(C(F)F)CC3(O)C(F)F)o2)c(C)c1[N+](=O)[O-] (stereo not drawn)	0%	-15	22	16	-13
Cc1occc1C(=O)N=Nc1c(O)n(C)c2ccccc12	7%	-32	3	-7	0.6

Screening results from PubChem.
